Compound activity deposited in PubChem BioAssay by Broad Institute.
Env fusion inh = blocks HIV Env-driven cell-cell fusion | inhibition, % at 12.3 µM | actives 1.1% (n = 360,000) | HeLa-JRFL Env/CEM21 cell fusion, luciferase;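 active means mean replicate inhibition score of at least 50 and every replicate individually at or above 50; inconclusive means only one of the two criteria met; inactive means mean below 50 and not all replicates reaching 50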;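 further: 0% = plate neutral controls and 100% = maraviroc near 300 nM; one replicate is shown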
Yeast UUG start = alters start codon recognition fidelity in yeast | actives 0.13% (n = 350,000) | activity score, % at 18.7 µM | AID 602363 | S. cerevisiae UUG-firefly luciferase reporter, luminescence/redox ratio;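 active means replicate mean at a twofold rise or more, about +100% in these data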;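 further: firefly luciferase made from a UUG start codon reports start codon fidelity; reporter light over untreated wells divided by growth signal over untreated wells; some hits fall short of that in this replicate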
Numbers without * were called inactive; ? = inconclusive; [ ] = another dose, or the depositor's remark. An excerpt, so the mix of outcomes need not match the whole.

SMILES	Env fusion inh	Yeast UUG start
C[C@@H]1CN([C@@H](C)CO)S(=O)(=O)c2ccc(C3=CCCCC3)cc2O[C@@H]1CN(C)Cc1cncnc1	9.7[16.7 µM]	45.4
O=C(C[C@H]1C[C@H]2c3cc(NS(=O)(=O)c4ccc(F)cc4)ccc3O[C@H]2[C@H](CO)O1)NCc1ccccc1	-26.3[16.7 µM]	6.2
Cc1noc(C)c1S(=O)(=O)Nc1ccc2c(c1)CC(=O)N([C@H](C)CO)C[C@@H](C)[C@@H](CN(C)S(C)(=O)=O)O2	-23.2[16.7 µM]	11.5
C[C@@H]1CN([C@@H](C)CO)C(=O)c2cc(NS(=O)(=O)c3ccccc3)ccc2O[C@@H](C)CCCCO[C@@H]1CN(C)C(=O)Cc1ccccc1	-4.5[16.7 µM]	5.8
O=C(C[C@@H]1C=C[C@@H](NS(=O)(=O)c2ccccc2)[C@@H](CO)O1)N1CCc2ccccc2C1	7.2[16.7 µM]	-12.6
N#C[C@@H]1[C@H](c2ccc(C#CC3CCCCC3)cc2)[C@@H](CO)N1C(=O)c1cccc(F)c1	24.0[16.7 µM]	-12.6
C[C@@H]1CCCCO[C@H](CN(C)C(=O)NC2CCCCC2)[C@@H](C)CN([C@H](C)CO)C(=O)c2cc(NC(=O)C3CCCCC3)ccc2O1	7.8[16.7 µM]	4.9
COc1ccccc1-c1ccc2c(c1)O[C@H](CN(C)Cc1ccc3c(c1)OCO3)[C@H](C)CN([C@H](C)CO)S2(=O)=O	38.1[16.7 µM]	-2.6
C/C=C/c1ccc2c(c1)O[C@H](CN(C)Cc1cncnc1)[C@H](C)CN([C@@H](C)CO)S2(=O)=O	22.8[16.7 µM]	14.0
C[C@@H]1CN([C@H](C)CO)C(=O)c2cccc(NS(=O)(=O)c3ccc(F)cc3)c2O[C@@H]1CN(C)Cc1ccc(C(F)(F)F)cc1	77.3*[16.7 µM]	-6.8
CC(C)c1cn(CC[C@@H]2CC[C@H](NS(=O)(=O)c3ccccc3)[C@@H](CO)O2)nn1	18.6[16.7 µM]	-20.1
COc1ccccc1-c1ccc([C@@H]2[C@@H](C#N)N(C(=O)C3CCC3)[C@@H]2CO)cc1	-21.6[16.7 µM]	13.7
Cc1noc(C)c1S(=O)(=O)Nc1cccc2c1O[C@H](CN(C)Cc1ccc(C(=O)O)cc1)[C@@H](C)CN([C@@H](C)CO)C2=O	7.4[16.7 µM]	0.9
COc1ccc(S(=O)(=O)N(C)C[C@H]2Oc3c(NC(=O)c4ccc(-c5nccs5)cc4)cccc3C(=O)N([C@@H](C)CO)C[C@H]2C)cc1	-8.4[16.7 µM]	1.7
C[C@H](CO)N1C[C@H](C)[C@H](CN(C)C(=O)Nc2ccc(C(F)(F)F)cc2)Oc2ccc(NC(=O)CCN3CCOCC3)cc2CC1=O	-20.6[16.7 µM]	-0.4
Cc1ccc(-c2cnc3c(c2)C(=O)N([C@@H](C)CO)C[C@@H](C)[C@@H](CN(C)C(=O)Cc2cccnc2)O3)cc1	-5.6[16.7 µM]	-2.4
Cc1noc(C)c1S(=O)(=O)N(C)C[C@H]1Oc2ccc(NC(=O)NC(C)C)cc2CC(=O)N([C@H](C)CO)C[C@@H]1C	13.1[16.7 µM]	11.8
C[C@@H]1CCCCO[C@H](CN(C)S(=O)(=O)c2cccs2)[C@H](C)CN([C@H](C)CO)C(=O)c2cc(NC(=O)C3CCCCC3)ccc2O1	6.4[16.7 µM]	4.9
CCNC(=O)Nc1ccc2c(c1)C(=O)N(C)[C@H]1CC[C@@H](CC(=O)NCCN3CCCC3)O[C@@H]1CO2	8.6[16.7 µM]	-2.4
COc1ccc(NC(=O)N(C)C[C@@H]2Oc3ccc(NC(=O)Nc4ccc5c(c4)OCO5)cc3CC(=O)N([C@H](C)CO)C[C@H]2C)cc1	28.2[16.7 µM]	5.9
C[C@H]1CN([C@@H](C)CO)C(=O)c2cc(C3=CCCCC3)cnc2O[C@H]1CN(C)C(=O)Cc1ccncc1	1.5[16.7 µM]	0.6
COCc1cn(CC[C@H]2CC[C@@H](NC(=O)Nc3ccccc3)[C@H](CO)O2)nn1	-11.4[16.7 µM]	-5.5
C[C@H](CO)N1C[C@H](C)[C@@H](CN(C)C(=O)Cc2ccccc2)Oc2ncc(-c3ccccc3)cc2C1=O	7.0[16.7 µM]	-5.4
O=C(C[C@H]1C[C@@H]2c3cc(NS(=O)(=O)c4ccc(F)cc4)ccc3O[C@@H]2[C@@H](CO)O1)NCc1ccccc1	10.2[16.7 µM]	4.8
C[C@H](CO)N1C[C@H](C)[C@H](CN(C)Cc2ccncc2)Oc2cc(C3=CCCCC3)ccc2S1(=O)=O	39.7[16.7 µM]	-11.9
Next entries follow.
SMILES	Env fusion inh	Yeast UUG start
C[C@H]1CN([C@@H](C)CO)C(=O)c2cc(NC(=O)C3CCCCC3)ccc2O[C@H]1CN(C)C(=O)Nc1cccc2ccccc12	8.8[16.7 µM]	32.8
C[C@@H]1CCCCO[C@@H](CN(C)C(=O)Nc2ccc(C(F)(F)F)cc2)[C@H](C)CN([C@H](C)CO)C(=O)c2cc(NC(=O)c3ccccc3)ccc2O1	-0.1[16.7 µM]	-9.8
COc1ccc(NC(=O)N[C@@H]2CC[C@@H](CCNS(=O)(=O)c3cccc(Cl)c3)O[C@@H]2CO)cc1	15.0[16.7 µM]	39.4
Cc1noc(C)c1S(=O)(=O)Nc1ccc2c(c1)C(=O)N([C@@H](C)CO)C[C@H](C)[C@@H](CN(C)CC1CC1)O2	7.7[16.7 µM]	9.3
C[C@H](CO)N1C[C@H](C)[C@H](CN(C)C)OCCCC[C@H](C)Oc2ccc(NS(=O)(=O)c3ccc(Cl)cc3)cc2C1=O	-36.9[16.7 µM]	11.3
CN(C)CC(=O)N[C@H]1C=C[C@@H](CC(=O)NCc2ccccc2F)O[C@@H]1CO	5.1[16.7 µM]	-4.6
O=C(C[C@@H]1C[C@H]2c3cc(NC(=O)C4CCC4)ccc3O[C@H]2[C@@H](CO)O1)NCCN1CCCCC1	-11.5[16.7 µM]	-10.4
Cc1ccccc1-c1cnc2c(c1)C(=O)N([C@H](C)CO)C[C@H](C)[C@H](CN(C)CC1CCOCC1)O2	0.3[16.7 µM]	-1.5
COCC(=O)Nc1ccc2c(c1)[C@H]1C[C@H](CC(=O)N3CCN(C)CC3)O[C@@H](CO)[C@H]1O2	17.4[16.7 µM]	-9.2
CNC[C@@H]1Oc2ccc(NC(=O)CCC(F)(F)F)cc2C(=O)N([C@H](C)CO)C[C@@H]1C	-3.9[16.7 µM]	-7.9
C[C@@H](O)C#Cc1ccc2c(c1)O[C@H](CN(C)C(=O)CC1CC1)[C@@H](C)CN([C@@H](C)CO)S2(=O)=O	-21.4[16.7 µM]	13.7
O=C(C[C@H]1C[C@H]2c3cc(NC(=O)CC4CC4)ccc3O[C@H]2[C@@H](CO)O1)NCc1ccccc1	-1.1[16.7 µM]	-15.4
COCC(=O)N(C)C[C@@H]1Oc2ncc(C#Cc3ccccc3OC)cc2C(=O)N([C@H](C)CO)C[C@@H]1C	15.7[16.7 µM]	0.3
COc1cccc(C#Cc2cnc3c(c2)C(=O)N([C@H](C)CO)C[C@@H](C)[C@H](CN(C)C)O3)c1	-33.2[16.7 µM]	15.1
COc1ccc(NC(=O)Nc2ccc3c(c2)C(=O)N([C@@H](C)CO)C[C@@H](C)[C@@H](CN(C)Cc2ccncc2)OCCCC[C@H](C)O3)cc1	-5.6[16.7 µM]	-1.6
C[C@H](CO)N1C[C@H](C)[C@H](CN(C)C(=O)NC2CCCC2)Oc2ncc(-c3cccnc3)cc2C1=O	-11.2[16.7 µM]	-7.3
C[C@H](CO)N1C[C@H](C)[C@H](CN(C)C(=O)Nc2cc(F)ccc2F)Oc2cc(C#CC3CCCC3)ccc2S1(=O)=O	-28.7[16.7 µM]	-5.1
CCS(=O)(=O)N[C@@H]1C=C[C@H](CC(=O)NC2Cc3ccccc3C2)O[C@H]1CO	-9.1[16.7 µM]	-7.5
C[C@@H]1CN([C@@H](C)CO)C(=O)c2cccc(NC(=O)c3cnccn3)c2O[C@H]1CN(C)Cc1ccc2c(c1)OCO2	31.8[16.7 µM]	8.4
C[C@@H]1CCCCO[C@@H](CN(C)S(=O)(=O)c2ccc(Cl)cc2)[C@@H](C)CN([C@H](C)CO)C(=O)c2cc(NC(=O)Nc3ccc4c(c3)OCO4)ccc2O1	-14.3[16.7 µM]	-18.0
C[C@@H]1CCCCO[C@@H](CN(C)C(=O)CCCN(C)C)[C@@H](C)CN([C@H](C)CO)C(=O)c2cc(NC(=O)Nc3ccc4c(c3)OCO4)ccc2O1	-1.3[16.7 µM]	-1.9
CCCN(C)C[C@H]1Oc2cc(C#Cc3ccccn3)ccc2S(=O)(=O)N([C@@H](C)CO)C[C@H]1C	-36.9[16.7 µM]	-4.2
CCC(=O)N(C)C[C@H]1Oc2ncc(C#C[C@@H](C)O)cc2C(=O)N([C@@H](C)CO)C[C@@H]1C	18.5[16.7 µM]	3.4
Cc1ccc(S(=O)(=O)N(C)C[C@H]2Oc3ccc(NC(=O)Cc4cn(C)c5ccccc45)cc3C(=O)N([C@@H](C)CO)C[C@@H]2C)cc1	-17.8[16.7 µM]	-3.7
C[C@H]1CCCCO[C@@H](CN(C)C(=O)C2CCCCC2)[C@@H](C)CN([C@@H](C)CO)C(=O)c2cc(NC(=O)Nc3ccc(C(F)(F)F)cc3)ccc2O1	0.1[16.7 µM]	-19.5

Whole records from above:
Results for `O=C(C[C@@H]1C[C@H]2c3cc(NC(=O)C4CCC4)ccc3O[C@H]2[C@@H](CO)O1)NCCN1CCCCC1` : Env fusion inh = -11.5[16.7 µM]; Yeast UUG start = -10.4
Results for `C[C@@H]1CCCCO[C@@H](CN(C)S(=O)(=O)c2ccc(Cl)cc2)[C@@H](C)CN([C@H](C)CO)C(=O)c2cc(NC(=O)Nc3ccc4c(c3)OCO4)ccc2O1` : Env fusion inh = -14.3[16.7 µM]; Yeast UUG start = -18.0

Look-ups from above:
`C[C@@H]1CCCCO[C@@H](CN(C)S(=O)(=O)c2ccc(Cl)cc2)[C@@H](C)CN([C@H](C)CO)C(=O)c2cc(NC(=O)Nc3ccc4c(c3)OCO4)ccc2O1` | Yeast UUG start = -18.0
`CNC[C@@H]1Oc2ccc(NC(=O)CCC(F)(F)F)cc2C(=O)N([C@H](C)CO)C[C@@H]1C` | Yeast UUG start = -7.9

Following part.
SMILES	Env fusion inh	Yeast UUG start
COc1cccc(-c2ccc3c(c2)O[C@@H](CN(C)C(C)=O)[C@@H](C)CN([C@H](C)CO)S3(=O)=O)c1	-3.8[16.7 µM]	13.9
C[C@@H]1CCCCO[C@H](CN(C)S(=O)(=O)c2ccc(F)cc2)[C@@H](C)CN([C@H](C)CO)C(=O)c2cc(NS(=O)(=O)c3ccc(F)cc3)ccc2O1	-22.8[16.7 µM]	-10.7
Cc1ccc(S(=O)(=O)N[C@H]2CC[C@H](CC(=O)NCc3ccncn3)O[C@@H]2CO)cc1	-0.2[16.7 µM]	-2.8
CN(C)C(=O)C[C@@H]1C=C[C@@H](NC(=O)C2CC2)[C@@H](CO)O1	8.9[16.7 µM]	-7.2
CS(=O)(=O)Nc1ccc2c(c1)[C@@H]1C[C@@H](CC(=O)NCC(F)(F)F)O[C@@H](CO)[C@@H]1O2	-6.2[16.7 µM]	0.6
COc1ccc(S(=O)(=O)Nc2ccc3c(c2)CC(=O)N([C@@H](C)CO)C[C@@H](C)[C@@H](CN(C)C(=O)Nc2ccc4c(c2)OCO4)O3)cc1	-22.2[16.7 µM]	16.5
CCC(=O)Nc1ccc2c(c1)C(=O)N(C)C[C@@H](OC)[C@@H](C)CN(CCC(F)(F)F)[C@@H](C)CO2	10.7[16.7 µM]	-9.5
CCCNC(=O)N[C@@H]1CC[C@@H](CC(=O)NCCc2ccccc2)O[C@@H]1CO	-0.1[16.7 µM]	-20.4
CCCN1C[C@H](C)[C@H](OC)CN(C)C(=O)c2cc(NC(=O)c3ccccc3F)ccc2OC[C@H]1C	-1.1[16.7 µM]	8.5
CN(C)Cc1cn(CC[C@H]2CC[C@@H](NC(=O)Nc3ccccc3F)[C@@H](CO)O2)nn1	12.1[16.7 µM]	1.5
Cc1noc(C)c1NC(=O)N(C)C[C@@H]1Oc2ccc(NC(=O)c3ccncc3)cc2CC(=O)N([C@H](C)CO)C[C@H]1C	-5.3[16.7 µM]	-13.9
COCC#Cc1ccc2c(c1)O[C@H](CN(C)C(=O)NC(C)C)[C@@H](C)CN([C@H](C)CO)S2(=O)=O	-4.5[16.7 µM]	2.4
Cc1ccc(S(=O)(=O)Nc2ccc3c(c2)C(=O)N([C@@H](C)CO)C[C@H](C)[C@H](CN(C)C(=O)CCC(F)(F)F)OCCCC[C@@H](C)O3)cc1	-39.4[16.7 µM]	-18.1
C[C@H](CO)N1C[C@H](C)[C@H](CN(C)S(C)(=O)=O)Oc2ncc(C#CC3CC3)cc2C1=O	-17.1[16.7 µM]	38.4
C[C@@H]1CCCCO[C@@H](CN(C)Cc2ccc(C(=O)O)cc2)[C@@H](C)CN([C@H](C)CO)C(=O)c2cc(NC(=O)c3ccncc3)ccc2O1	3.5[16.7 µM]	-8.4
C[C@H]1C=C(C(=O)Nc2ccccc2)O[C@@H](OCc2ccc(CO)cc2)C1	?	13.7
CO[C@H]1CN(C)C(=O)c2cc(NC(=O)c3cnccn3)ccc2OC[C@@H](C)NC[C@@H]1C	-8.1[16.7 µM]	-10.6
COCC#Cc1cnc2c(c1)C(=O)N([C@H](C)CO)C[C@H](C)[C@H](CN(C)C(=O)CN1CCOCC1)O2	2.8[16.7 µM]	1.4
C[C@H](CO)N1C[C@H](C)[C@@H](CN(C)C(=O)Nc2ccccc2)Oc2cc(-c3cccc(C(=O)N(C)C)c3)ccc2S1(=O)=O	-40.7[16.7 µM]	1.0
O=C(C[C@H]1C=C[C@@H](NS(=O)(=O)c2ccc(F)cc2)[C@@H](CO)O1)NCCN1CCCCC1	9.2[16.7 µM]	-1.0
CCNC(=O)C[C@@H]1CC[C@@H]2[C@H](COC[C@H](O)CN2C(=O)C2CCOCC2)O1	-5.7[16.7 µM]	-11.5
